# Assay outcomes as filed in PubChem.
# GALR2 ag – GALR2 (human) receptor agonism; GALR2-expressing cells, agonist activation read-out; O43603; actives 0.48% (n = 140,000); activation, %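 (tested at 5 µM)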;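 active = above mean plus 3 SD of all compounds, about 5% in these data, not always enough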;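 also: 0% = vehicle buffer wells and 100% = reference agonist at full effect; tested in CHO reporter cells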
# Target sequence (O43603 whole entry, looked up): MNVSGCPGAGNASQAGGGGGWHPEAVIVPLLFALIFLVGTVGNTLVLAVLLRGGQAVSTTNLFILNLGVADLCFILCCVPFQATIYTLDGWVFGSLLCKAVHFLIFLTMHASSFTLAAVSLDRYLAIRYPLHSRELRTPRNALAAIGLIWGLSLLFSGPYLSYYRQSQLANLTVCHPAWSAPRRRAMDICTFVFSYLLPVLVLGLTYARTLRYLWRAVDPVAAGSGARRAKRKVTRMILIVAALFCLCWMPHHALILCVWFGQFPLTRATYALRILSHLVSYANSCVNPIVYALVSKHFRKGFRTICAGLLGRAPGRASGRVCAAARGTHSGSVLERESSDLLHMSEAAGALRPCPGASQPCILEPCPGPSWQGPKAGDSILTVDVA
# PKD1 kinase inh – blocks activity of human protein kinase D1; Q15139; PKD1 kinase fluorescence polarization assay; inhibition, %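 (about 10 µM by stock and volumes)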; actives 0.056% (n = 200,000);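 active = inhibition of 50% or more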;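 also: controls were vehicle for no effect and a reference inhibitor for full effect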
# RGS16-Gao HTS – regulators of human RGS16-Galphao interaction; O15492+P09471; bead-based flow cytometry RGS16-Galphao binding, fluorescence; actives lie on both sides; binding response (% of control), % at 10 µM; actives 0.38% (n = 220,000); AID 1441;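 active = below 25% or above 175%, edge rows of some plates excepted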;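 also: Galphao activated by GDP with aluminum fluoride before binding; 100% = wells without compound and 0% = beads without RGS; some results beyond the cut were filed as inactive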
# Target sequence (O15492 whole entry, looked up): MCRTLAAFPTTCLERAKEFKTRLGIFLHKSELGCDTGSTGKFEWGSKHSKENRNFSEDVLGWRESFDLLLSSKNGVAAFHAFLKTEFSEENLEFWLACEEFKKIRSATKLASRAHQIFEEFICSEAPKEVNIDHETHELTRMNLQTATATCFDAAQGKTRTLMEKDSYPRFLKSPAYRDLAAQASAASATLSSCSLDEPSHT
# Target sequence (P09471 whole entry, looked up): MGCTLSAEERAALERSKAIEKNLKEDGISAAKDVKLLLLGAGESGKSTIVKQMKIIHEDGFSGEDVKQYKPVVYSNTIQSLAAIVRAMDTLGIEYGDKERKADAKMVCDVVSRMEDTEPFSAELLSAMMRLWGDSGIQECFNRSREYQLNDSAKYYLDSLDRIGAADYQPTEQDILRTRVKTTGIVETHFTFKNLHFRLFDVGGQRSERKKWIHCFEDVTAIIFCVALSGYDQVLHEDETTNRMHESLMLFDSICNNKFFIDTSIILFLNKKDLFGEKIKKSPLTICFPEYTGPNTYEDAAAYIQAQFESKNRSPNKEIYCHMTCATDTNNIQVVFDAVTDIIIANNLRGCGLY
# HSV augment – HSV replication enhancement; actives 0.005% (n = 220,000); HSV replication augmentation in cells, fold increase; maximum fold increase;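 active = peak rise of 1.5-fold or more in the series; tested in PC3 cells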;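 also: first round at 10 µM; read as green reporter fluorescence; hits show the peak of a series up to 25 µM; 1 = signal of infected wells without compound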
# INS promoter inh – TRM-6 insulin promoter activity inhibition; AID 1273; inhibition, % at 2 µM; TRM-6 cells (human fetal islet line), insulin promoter-eGFP reporter, imaging; reporter expression induced with tamoxifen; actives 0.9% (n = 130,000);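 active = inhibition above the mean plus 3 SD, with well images judged a real hit on visual review, cut at about 60% in these data, passing the limit was not always enough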
# INS promoter inh cell count – also measured in INS promoter inh; calls as there; normalized cell count, %; measured here: cell count, toxicity; reference of the scale not given here;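 cells exposed to compound for 48 h; stained nuclei by imaging scaled within each plate; lower means fewer cells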
# HSV augment primary fold – second read-out of HSV augment, no call of its own (marks repeat the call); fold increase; compound at 10 µM; measured here: primary screen fold increase 10 uM; tested in PC3 cells;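 GFP signal in the first replicate; 1 = infected wells without compound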
# * = called active by the depositor; i = inactive; nt = no result given.
SMILES,GALR2 ag,PKD1 kinase inh,RGS16-Gao HTS,HSV augment,HSV augment primary fold,INS promoter inh,INS promoter inh cell count
O=C(NCc1n[nH]c(=S)n1-c1ccc(Br)cc1)c1ccc(S(=O)(=O)N2CCOCC2)cc1,nt,-12,101,i,1.1,nt,nt
CCc1ccc(S(=O)(=O)c2nnn3c2nc(NCCNC(C)=O)c2ccccc23)cc1,nt,2,114,i,0.91,83*,36*
FC(F)(F)c1cc(-c2ccccc2)nc(N2CCOCC2)n1,-2.2,2,103,i,0.95,3,81
O=C(O)CCC(=O)N1N=C(c2c(-c3ccccc3)c3cc(Cl)ccc3[nH]c2=O)CC1c1ccco1 (configuration not stated),0.5,0,103,i,0.99,nt,nt
CCc1ccc(-c2cc(C(=O)NN3CCN(C)CC3)c3ccccc3n2)cc1,0.4,6,110,i,0.78,-25,121
COC(=O)Nc1cc([N+](=O)[O-])ccc1OC,-0.3,2,101,i,0.99,23,103
COc1ccc(CCN(Cc2cc3cc(C)c(C)cc3nc2Cl)C(=O)C2CC2)cc1,-1.6,0,98,i,0.82,nt,nt
CCOC(=O)NC(Nc1cc(C)on1)(C(F)(F)F)C(F)(F)F,-0.4,-5,60,i,1.1,21,104
CCn1c(C)c(C(C)=O)c(NCc2ccccc2)nc1=S,-3.1,3,97,i,1.1,27,60
COc1ccccc1NC(=S)N1CCN(C/C=C/c2ccccc2)CC1,-0.5,0,103,i,0.94,-194,2
CCOc1ccc(-n2c(SCC(=O)N3CCc4ccccc43)nnc2-c2c[nH]c3ccccc23)cc1,0.4,-6,102,nt,nt,27,94
CCCN1Cc2cccc(C(=O)Nc3ccc(-c4nc5ccccc5[nH]4)cc3)c2C1=O,4.3,-6,99,i,0.89,0,108
O=C(c1ccoc1)N1CCC2(CC1)Oc1ccc(F)cc1C(=O)C21CC(c2ccccc2)=NO1 (configuration not stated),nt,nt,102,i,0.85,nt,nt
O=C(O)CC(c1cccc2ccccc12)n1cccc1 (configuration not stated),-1.5,-2,113,i,1,15,70
COc1ccccc1NC(=S)NC(=O)C1CC1,0.3,7,111,i,0.9,-20,102
Cc1ccc2c(c1)[nH]c1c(=O)n(CCN3CCNCC3)cnc12,2.9,1,102,i,0.88,6,94
COC(Cn1cc(C)c(=O)[nH]c1=O)OC,nt,-3,102,i,0.82,13,118
CCn1c(CSCc2ccc(Cl)cc2)nnc1SCC(=O)Nc1cccc(C(=O)O)c1,nt,0,82,i,1,nt,nt
COc1ccc(S(=O)(=O)N2C3CCC2CC(NC(=O)NC2CCCCC2)C3)cc1 (configuration not stated),-1.2,-4,97,i,1.1,57,104
CCc1ccc(NC(=O)CSCc2nc(N)nc(Nc3ccccc3CC)n2)cc1,-2.3,-2,111,i,0.88,-19,24
CCOC(=O)C1CCCCN1Cc1ccc(OC)c(OC)c1 (configuration not stated),nt,nt,88,i,0.95,nt,nt
O=C(C1CCCN(Cc2ccccc2Br)C1)N1CCCCC1 (configuration not stated),-2.3,-15,87,i,1,18,85
O=C(Nc1ccc(Br)cc1Cl)N1CCOCC1,nt,-2,108,i,0.82,nt,nt
CC1=C(C)CC(C(=O)N2CCN(C/C=C/c3ccccc3)CC2)C(C(=O)O)C1 (configuration not stated),nt,-9,100,i,0.98,-125,85
O=S(=O)(Cc1ccccc1)N1CCCC(c2nc(-c3ccc(F)cc3)no2)C1 (configuration not stated),-2.9,9,104,i,1.1,14,43
O=C1c2ccccc2NC(c2ccco2)N1O (configuration not stated),-2.4,-4,97,i,0.99,41,114
O=C(N/N=C/c1ccc2c(c1)OCO2)C(=O)Nc1ccc2ccccc2c1,nt,-7,100,i,0.98,nt,nt
Cc1cccc(NC(=O)COC(=O)c2ccc([N+](=O)[O-])o2)c1C,nt,5,114,i,0.94,-64,139
CCc1ccc(NSc2ccccc2[N+](=O)[O-])cc1,-1.5,-8,103,i,0.73,0,77
O=C(c1cc2c(=O)n3ccccc3nc2s1)N1CCc2ccccc2C1,nt,-5,99,i,1,nt,nt
Cc1ccc(OCCN2C(=O)C(=O)c3cc(C)ccc32)cc1,nt,-3,74,i,0.8,-358,4
CCOC(=O)C1=C(C)N(C)C(C)=C(C(=O)OCC)C1c1ccc(C(=O)OC)cc1,-1.0,-1,42,i,0.94,-4,169
COc1ccccc1/C=N/NC(=O)CC(=O)NC1CCCCC1,nt,6,105,i,1,nt,nt
COc1ccc(-n2cc(-c3ccccc3)c3c(NN4CCOCC4)ncnc32)cc1,nt,-1,99,i,0.96,14,124
O=C(CSc1nnnn1-c1ccccc1)Nc1nc(-c2ccccc2)ns1,-1.5,-1,107,i,0.94,0,95
Cc1nc(CCNS(=O)(=O)c2cccs2)cs1,0.2,-6,101,i,0.98,-129,75
CCc1ccc(-c2csc(NC(=O)c3cccnc3)n2)cc1,1.8,-4,105,i,0.88,-57,103
Cc1cccc2c(=O)n3c(nc12)CCCCC3,-2.4,1,104,i,0.95,0,162
CC1=C(C(=O)NCc2ccccc2)C(c2cccs2)n2ncnc2N1 (configuration not stated),-3.0,-13,-63*,i,0.92,nt,nt
CCOC(CNC(=O)Cc1c(C)nc2c(-c3ccccc3)c(C)nn2c1C)OCC,nt,-3,100,i,0.97,nt,nt
COc1cccc(C(c2c(N)n(C)c(=O)n(C)c2=O)C(C)[N+](=O)[O-])c1 (configuration not stated),nt,nt,101,i,1.1,nt,nt
OC(c1ccccc1)(c1ccccc1)C1CCN(C(=S)NC2CCCC2)CC1,nt,-1,102,i,0.94,nt,nt
CCOC(=O)c1c(C)oc2cc(Br)c(OC(C)C(=O)OCC)cc12 (configuration not stated),-0.1,-16,110,i,0.85,nt,nt
Cn1c(SCC(=O)N2CCN(c3cccc(Cl)c3)CC2)nnc1-c1ccncc1,-0.2,-2,102,i,0.96,-19,163
NCCn1c(-c2ccccc2)cc(C(=O)O)c1-c1ccccc1F,-1.3,-3,113,i,1.4,5,67

# Retrieved one by one from the entries so far:
SMILES,GALR2 ag,PKD1 kinase inh,RGS16-Gao HTS,HSV augment,HSV augment primary fold,INS promoter inh,INS promoter inh cell count
CCOC(=O)C1=C(C)N(C)C(C)=C(C(=O)OCC)C1c1ccc(C(=O)OC)cc1,-1.0,-1,42,i,0.94,-4,169
Cn1c(SCC(=O)N2CCN(c3cccc(Cl)c3)CC2)nnc1-c1ccncc1,-0.2,-2,102,i,0.96,-19,163

# Other compounds:
SMILES,GALR2 ag,PKD1 kinase inh,RGS16-Gao HTS,HSV augment,HSV augment primary fold,INS promoter inh,INS promoter inh cell count
O=C(NC12CC3CC(CC(C3)C1)C2)c1ccc(COc2ccc(Cl)cc2[N+](=O)[O-])o1,0.8,-13,101,i,0.88,-41,55
COc1ccc(CC(=O)Nc2cc(C)ccc2O)cc1OC,nt,nt,103,i,1.1,nt,nt
CC(Sc1nnnn1C)C(=O)NC1CCCc2ccccc21 (configuration not stated),nt,-4,100,i,0.92,nt,nt
O=C(COC(=O)c1ccc(Br)o1)Nc1cccc(S(=O)(=O)N2CCCCCC2)c1,-1.2,5,98,i,0.85,-3,83
Cc1ccc2nc(N3CCN(c4ccccc4F)CC3)c(C=O)c(=O)n2c1,nt,6,106,i,1.1,nt,nt
COC(=O)CSc1nc(-c2ccccc2)nc2ccccc12,nt,7,104,i,0.94,5,126
CCc1ccc(-c2cn3nc(C)c(C)nc3n2)cc1,7.0,-5,99,i,0.75,nt,nt
Cc1[nH]nc2c1C(C1CC=CCC1)C(C#N)=C(N)O2 (configuration not stated),-1.4,-3,98,i,0.87,8,61
COc1ccc(C(C)=O)c(Oc2nc(CN3CCOCC3)nc3scc(-c4cccs4)c23)c1,-1.8,-5,93,i,1,-21,112
Cc1ccc(C(O)CSc2nnc(-c3ccc4ccccc4c3)n2C)cc1 (configuration not stated),nt,nt,99,i,0.98,nt,nt
Cc1ccc2cc(CN(CC3CCCO3)C(=S)Nc3ccccc3)c(=O)[nH]c2c1 (configuration not stated),nt,-2,99,i,0.75,nt,nt
CC(C)OC(=O)CSc1nc2ncccc2[nH]1,-0.5,4,85,i,1,nt,nt
Cc1ccc(-c2nc(C(=O)O)cs2)cc1,nt,2,92,i,1.2,-145,68
CCCc1cc(C(=O)Nc2ccccc2C(=O)OC)no1,-2.3,-5,100,i,1.1,nt,nt
Cc1ccc(Nc2nnc(SCC(=O)Nc3ccccc3[N+](=O)[O-])s2)cc1,0.1,-3,98,i,1.1,nt,nt
CC(=O)c1ccc(OC(C)C)c(Cc2c(O)nc(N)[nH]c2=O)c1,-0.2,3,107,i,0.95,nt,nt
Cc1[nH]n(-c2ccccc2)c(=O)c1-c1ccc(Cl)cc1,-1.9,1,104,i,0.89,43,70
COc1cc(CNCc2ccc(OC)c(OC)c2OC)cc(OC)c1,-1.3,-12,101,i,0.92,nt,nt
O=C(NNC(=S)NC(=O)c1cccs1)c1cccnc1,nt,-4,102,i,0.93,-18,111
Cc1ccccc1CSc1nc2ccccc2c(=O)[nH]1,-0.9,-2,89,i,0.86,32,189
Cc1ccc(C2C(C#N)=C(N)SC(N)=C2C#N)o1,-1.5,-1,86,i,1.1,31,77
CCOC(=O)c1nnc(-c2cccs2)nc1Oc1ccccc1C(=O)OC,-3.2,-1,97,i,0.95,58,59
Cc1ccc(NC(=O)C2Cc3ccccc3CN2C(=O)c2ccccc2)cc1Cl (configuration not stated),-1.1,-5,108,i,0.96,-23,89
COc1ccc(OC)c(-n2cc3c(=O)n(C)c(=O)n(C)c3c2)c1,0.1,-6,100,i,0.89,-46,200
COC(C[C@@H]1O[C@@H]1[C@@H](O)[C@@H](C)OCc1ccccc1)OC,nt,nt,108,i,0.9,nt,nt
COc1ccccc1NC(=O)CC(NCCN(C)C)C(=O)O (configuration not stated),-1.8,0,105,i,0.7,72*,43*
Cn1c(COc2cccc3cccnc23)nnc1SCC(=O)O,nt,-4,98,i,1,nt,nt
CC(=O)O/N=C(\N)c1ccc(-c2csnn2)cc1,nt,nt,98,i,0.99,nt,nt
CCN(CC)c1ccc(-n2c(C)cc(C=O)c2C)cc1,-3.4,-2,96,i,0.88,12,107
O=C(CC1SC(=Nc2ccc3c(c2)OCCO3)NC1=O)Nc1ccc(F)cc1F (configuration not stated),nt,nt,104,i,1.1,nt,nt

# Of the compounds above, these contain two or more sulfur atoms.
SMILES,GALR2 ag,PKD1 kinase inh,RGS16-Gao HTS,HSV augment,HSV augment primary fold,INS promoter inh,INS promoter inh cell count
O=C(NCc1n[nH]c(=S)n1-c1ccc(Br)cc1)c1ccc(S(=O)(=O)N2CCOCC2)cc1,nt,-12,101,i,1.1,nt,nt
CCn1c(CSCc2ccc(Cl)cc2)nnc1SCC(=O)Nc1cccc(C(=O)O)c1,nt,0,82,i,1,nt,nt
O=C(CSc1nnnn1-c1ccccc1)Nc1nc(-c2ccccc2)ns1,-1.5,-1,107,i,0.94,0,95
Cc1nc(CCNS(=O)(=O)c2cccs2)cs1,0.2,-6,101,i,0.98,-129,75
COc1ccc(C(C)=O)c(Oc2nc(CN3CCOCC3)nc3scc(-c4cccs4)c23)c1,-1.8,-5,93,i,1,-21,112
Cc1ccc(Nc2nnc(SCC(=O)Nc3ccccc3[N+](=O)[O-])s2)cc1,0.1,-3,98,i,1.1,nt,nt
O=C(NNC(=S)NC(=O)c1cccs1)c1cccnc1,nt,-4,102,i,0.93,-18,111

# Continued.
SMILES,GALR2 ag,PKD1 kinase inh,RGS16-Gao HTS,HSV augment,HSV augment primary fold,INS promoter inh,INS promoter inh cell count
COCCn1c(=O)[nH]c2cc(C(=O)NCCc3ccc(OC)c(OC)c3)ccc2c1=O,-2.3,0,99,i,1.1,nt,nt
COc1ccc(OC)c(CN2CCCC(CCC(=O)N(C)CCc3ccccn3)C2)c1 (configuration not stated),nt,-7,101,i,0.94,nt,nt
COc1ccc2oc(C)c(C(=O)Cn3ccnc3)c2c1,-0.8,5,99,i,0.9,-21,134
CCOC(=O)c1c(NC(=O)/C=C/C(=O)O)sc(C)c1-c1ccc(C(C)(C)C)cc1,nt,12,98,i,0.93,63,107
O=C1c2ccccc2NC(c2ccncc2)N1c1ccccn1 (configuration not stated),-0.9,-6,99,i,1,-22,49
COc1cccc(NC(=O)Cn2c(=O)oc3cc(S(=O)(=O)N4CCCC4)ccc32)c1,nt,nt,99,i,1,nt,nt
C/C(=N\Nc1ccc([N+](=O)[O-])cc1)c1ccc(O)cc1,nt,-1,100,i,1,nt,nt
CCOC(=O)c1c(NC(=O)c2ccco2)sc(C(=O)N2CCCC2)c1C,0.1,-10,108,i,0.85,24,140
CCOC(=O)c1sc(=S)n(-c2ccccc2Cl)c1SC,-1.9,-2,106,i,0.97,6,88
CCn1cc(C(=O)O)c(=O)c2cc(F)c(N3CCN(C(=S)NC(=O)c4ccc(F)cc4)CC3)cc21,nt,nt,115,i,0.86,nt,nt
COCCn1c(=NC(=O)CSC(C)=O)sc2cc(F)ccc21,-0.6,7,115,i,0.86,55,47
CCC(NC(=O)NCc1ccccc1)(C(F)(F)F)C(F)(F)F,-0.3,4,71,i,1,71*,64*
Cc1sc(NC(=O)CSc2nnc(-c3ccccc3)o2)c(C#N)c1C,-1.2,-4,104,i,1,-3,56
